Compound activity (PubChem)
Rango dissoc inh – inhibitors of RanGTP-induced Rango-importin beta complex dissociation. Biochemical FRET Rango-importin beta, RanGTP-induced dissociation. Potency, µM (highest dose often 46.1 µM), for the others: at the highest dose activity change, negative = inhibition. 340,000 compounds, 0.071% hits. O95149+P62826. AID 540253; active means falling FRET ratio curve, often poorly fitted, with flat reads before Ran was added; inconclusive means other falling curves, or compound fluorescence or quenching; inactive means flat or rising ratio curve;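 note: potency is the fitted concentration of half-maximal effect; % of control where 0% means no effect; nearly all actives have a fitted effect of over 45% in size; -100% = wells without RanGTP and RCC1; the record marks most hits as doubtful in a second field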
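Quantitative HTS using a FRET biosensor: 0.1 uM Rango, 0.25 uM importin beta, 0.6 uM Ran, 2 mM GTP, 0.2 uM RCC1 final, PBS with DTT, Tween-20 and BSA. Post-read taken 45 min after Ran addition.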
Rango-impB inh – inhibitors of Rango-importin beta complex formation | Potency, µM (doses to about 92.2 µM), for the others: at the highest dose inhibition of complex formation | AID 540263 | Rango CFP/YFP FRET sensor + importin beta, 45 min | 340,000 compounds, 0.031% hits; active = rising FRET ratio curve, often small or poorly fitted; inconclusive = mostly compound fluorescence or quenching in the first reads; inactive = flat curves in all reads;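 note: potency is the fitted concentration of half-maximal effect; 0% = DMSO wells and 100% = buffer wells lacking importin beta; nearly all actives have a fitted effect of over 15% in size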
Target sequence (Q14974 whole entry, looked up): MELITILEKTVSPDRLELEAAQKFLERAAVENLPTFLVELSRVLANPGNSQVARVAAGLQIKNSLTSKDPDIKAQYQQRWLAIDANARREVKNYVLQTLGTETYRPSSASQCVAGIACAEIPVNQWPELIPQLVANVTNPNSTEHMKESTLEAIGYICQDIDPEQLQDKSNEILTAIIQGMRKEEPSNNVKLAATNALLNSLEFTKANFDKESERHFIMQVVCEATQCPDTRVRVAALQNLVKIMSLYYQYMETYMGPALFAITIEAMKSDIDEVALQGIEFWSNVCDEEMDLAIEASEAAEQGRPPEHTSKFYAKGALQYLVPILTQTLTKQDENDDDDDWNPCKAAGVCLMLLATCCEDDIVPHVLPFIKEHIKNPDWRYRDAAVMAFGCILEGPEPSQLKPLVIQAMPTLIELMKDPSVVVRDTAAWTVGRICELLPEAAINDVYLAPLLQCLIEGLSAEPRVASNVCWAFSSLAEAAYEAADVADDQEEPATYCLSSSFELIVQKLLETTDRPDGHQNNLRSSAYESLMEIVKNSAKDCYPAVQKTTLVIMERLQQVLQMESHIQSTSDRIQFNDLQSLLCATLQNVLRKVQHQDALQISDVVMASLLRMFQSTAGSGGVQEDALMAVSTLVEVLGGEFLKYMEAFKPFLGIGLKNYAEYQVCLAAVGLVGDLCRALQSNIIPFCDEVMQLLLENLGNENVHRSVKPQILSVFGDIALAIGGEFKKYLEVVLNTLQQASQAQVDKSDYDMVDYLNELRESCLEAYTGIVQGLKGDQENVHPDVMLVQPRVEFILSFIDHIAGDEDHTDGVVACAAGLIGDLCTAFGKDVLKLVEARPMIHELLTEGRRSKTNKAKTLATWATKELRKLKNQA
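Inhibition scored from the CFP 486 nm/YFP 530 nm FRET ratio 45 min after adding 0.125 microM importin beta to 50 nM Rango biosensor preincubated 5 min with compound (room temperature, PBS with DTT, Tween-20, BSA). No-importin wells as positive control.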
miR-21 reporter – miR-21 reporter, rising signal | HeLa miR-21 FLuc reporter, luciferase, 48 h | Potency, µM (titrated, usually from 38.3 µM), for inactives: at the highest dose reporter change, positive = more light | 340,000 tested, under 10 active | AID 2288; active = well fitted rising curve with a large enough effect; inconclusive = small, poorly fitted or top-dose-only effect; inactive = no such curve, though single readings can be large or run the other way;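 note: % of control where 0% means no effect; miR-21 action dims this reporter so a rising signal means less miR-21 action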
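Using DMEM plus 10% FBS, HeLa miR-21-FLuc cells are incubated with test compounds (final up to about 40uM) for 48 hours; firefly luciferase signal is then imaged following reagent-mediated lysis.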
GLA inh pH 4.5 – blocks human alpha-galactosidase A at pH 4.5 | purified enzyme, 4-MU-alpha-Gal fluorescence, pH 4.5 | P06280 | 230,000 tested, under 10 active | activity change, negative = inhibition, % at 105 µM; inconclusive = small, poorly fitted or top-dose-only inhibition, or a rising curve; inactive = flat fitted curve, though single readings scatter; no compound was filed as active;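 note: 0% = full activity with enzyme and -100% = basal without enzyme; dose as in the result columns while the protocol names 77 µM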
Numbers without * were called inactive; ? = inconclusive; . = no result given; & = joins results of further samples; [ ] = another dose, or the depositor's remark.

Below each compound: Rango dissoc inh, Rango-impB inh, miR-21 reporter, GLA inh pH 4.5
CCN(CC)c1ccc(NC(=O)c2cccnc2)cc1
 : -1.2%, -5.5%, -24.0%, 6.0
Cc1cc(C)cc(N(C(=O)CNC(=O)c2cccs2)C(C(=O)NC2CCCC2)c2cccnc2)c1 (configuration not stated)
 : 0.8%, 1.4%, 1.1%, -1.5
CCOc1ccc(NC(=O)CC(c2ccccc2)c2ccc(F)cc2)cc1 (configuration not stated)
 : 13.2%, 1.2%, -0.6%, -1.5
COc1ccc(S(=O)(=O)N2CCCCCC2)cc1C(=O)NCc1ccco1
 : 6.5%, -1.6%, ., .
Cc1ccc(S(=O)(=O)C2(C(=O)N3CCCCC3C)CC2)cc1 (configuration not stated)
 : 15.8%, -4.3%, -5.9%, 2.5
Cc1cc(F)ccc1S(=O)(=O)Nc1ccccc1C(=O)NCc1cccnc1
 : 2.3%, -0.9%, -0.1%, 0.9
O=C(O)CC1S/C(=N/N=C/C=C/c2ccccc2[N+](=O)[O-])NC1=O (configuration not stated)
 : -0.6%, 0.0%, -1.0%, 1.9
COc1cc(CN2CCC(C)CC2)ccc1OCc1ccccc1
 : -10.2%, 2.2%, -5.5%, .
Cc1ccc(OCC(O)CNC2CCCC2)c(C)c1 (configuration not stated)
 : -14.5%, -0.7%, -1.5%, .
O=C(Nc1nc2ccccc2s1)c1cccc(S(=O)(=O)N2CCc3ccccc32)c1
 : 0.8%, -0.4%, -11.2%, -14.1
N#Cc1c(Nc2ccccc2)c(/C=N/NCCO)c[nH]c1=O
 : -6.4%, -0.5%, -3.7%, 1.8
Cc1nc(C)c(C(=O)C2=C(O)C(=O)N(CCN(C)C)C2c2ccccc2)s1 (configuration not stated)
 : -17.1%, -0.8%, -2.6%, -6.5
CCCc1cc(=O)[nH]c(SCC(=O)N(C)CC(=O)Nc2ccc(F)cc2)n1
 : -4.6%, 4.4%, ., .
COc1ccccc1CNC(=O)c1cccc(S(=O)(=O)N2CCCC2)c1
 : -7.9%, -1.7%, ., .
CCOc1ccc(NC(=O)c2nnn(CC(=O)Nc3ccccc3OCC)c2N)cc1
 : 0.0%, 3.1%, -2.8%, -1.6
COc1cc(N(C)C)c(NC(C)=O)cc1C(=O)O
 : -10.8%, ?, -8.3%, -5.1
COC(=O)[C@H](CO)N1C(=O)[C@@H]2[C@H](C1=O)C1C=C[C@H]2C1
 : 3.3%, -3.8%, ., .
O=C(CCn1c(=S)oc2ccccc21)Nc1ccccc1Br
 : -5.8%, 6.4%, -1.1%, .
N#Cc1nc(COc2ccc(F)cc2)oc1N1CCC(Cc2ccccc2)CC1
 : -2.8%, ?, -0.8%, 11.4
CCOC(=O)N(CC)OC(=O)Nc1ccc(Cl)cc1
 : 0.5%, -2.5%, -17.4%, 4.2
O=c1c2oc3ccccc3c2ncn1Cc1ccc(Cl)cc1
 : 1.1%, 3.1%, -0.7%, 3.1[21.1 µM]
COc1ccc(S(=O)(=O)N[C@H](C(=O)O)C(C)C)cc1
 : -9.1%, 3.2%, -1.2%, 1.7
CCN(CC)S(=O)(=O)c1cc(C(=O)NCCN2CCOCC2)ccc1Cl
 : 39.1%, 0.1%, -3.9%, -1.5
Cc1ccccc1OCC(=O)Nc1c2c(nn1C(C)(C)C)CS(=O)(=O)C2
 : 1.7%, -2.0%, -2.5%, .
COc1cc(C=O)ccc1OS(=O)(=O)c1ccccc1[N+](=O)[O-]
 : 14.8%, 0.4%, -25.1%, -8.3
c1ccc(CCNc2nc(-c3ccncc3)cs2)cc1
 : 23.3%, 3.2%, -8.9%, 8.9
CC(C)Sc1cc(N2CCCC2)nc(-c2ccccc2)n1
 : 0.1%, -0.7%, -2.9%, 0.9
CC(C)(C)c1ccc(C(=O)NNc2cc(N3CCCCC3)nc(N3CCCCC3)n2)cc1
 : -1.0%, -3.6%, 10.1%, -14.6
COc1ccc(CN2C(=O)C(CC(C)C)Nc3ncnc(N4CCN(c5ccccc5)CC4)c32)cc1 (configuration not stated)
 : 9.1%, -3.6%, ., .
CCN(CC(=O)NCc1ccc(F)cc1)C(=O)/C=C/c1ccco1
 : 0.0%, -3.3%, 0.2%, 2.2
CCNc1nc(NC(C)C)nc(Oc2ccc(OCc3ccccc3)nn2)n1
 : 0.2%, -0.4%, -7.2%, -6.1
O=C(CS(=O)(=O)Cc1ccccc1)Nc1ccccn1
 : -8.3%, -0.8%, 2.6%, -13.7
COc1ccc(C(=O)CSc2nc(-c3ccccn3)nc(C)c2Cl)cc1
 : 6.4%, 0.2%, 26.0%, -6.7
Cc1ccc(NS(=O)(=O)c2ccc(NC(=O)CN(c3cc([N+](=O)[O-])ccc3C)S(C)(=O)=O)cc2)c(C)c1
 : 4.5%, 0.1%, ?, -18.7
CCCCC[C@@H]1C=C(C(=O)O)[C@H](c2ccc3c(c2)OCO3)N1S(=O)(=O)c1ccc(C)cc1
 : -9.0%, 3.7%, ., .
CCN(C[C@H]1N[C@@](CC)(C(=O)OC)[C@H]2C(=O)N(Cc3ccccc3)C(=O)[C@@H]12)C(=O)Nc1ccc(Cl)cc1
 : -1.5%, 0.1%, ., .
Cc1ccccc1N1C(=O)C(Oc2ccc(Cl)cc2)C1CNCC1CCCO1 (configuration not stated)
 : 1.0%, 1.5%, 1.7%, 0.8[21.1 µM]
CCc1cccc2c(C(=S)N3CCOCC3)c[nH]c12
 : -1.5%, 1.7%, -13.3%, 0.4
CCN1CCN(Cc2ccc(NC(=O)c3cc(NC(=O)c4cc(-c5ccc(OC)cc5)n[nH]4)cc(OC)c3)cc2C(F)(F)F)CC1
 : -3.7%, 2.6%, ?, -4.1
ON=C(CCc1ccccc1)c1ccccc1
 : -3.4%, -0.6%, ., .
Cc1ccc(NC(=O)Cn2c(=O)n(CCCC(=O)NCc3ccco3)c(=O)c3ccccc32)cc1
 : 27.7%, -1.8%, 0.1%, 0.5
CCN(CC)S(=O)(=O)c1ccc(N2CCOCC2)c(NC(=O)C2=COCCO2)c1
 : -3.4%, 2.6%, ?, .
Cn1c(SCC(=O)N2CCCc3ccccc32)nc2cccnc21
 : 1.2%, 0.3%, 6.9%, 3.3
CCCCNC(=O)c1ccc(Cn2c(=S)[nH]c3c([nH]c4ccc(OC)cc43)c2=O)cc1
 : 25.3%, -4.0%, -24.1%, -5.9
O=C(O)c1ccc(CNCc2ccc(Cl)cc2Cl)cc1
 : 8.0%, 0.8%, -7.9%, -6.7
Nc1nc(SCc2cccc(Br)c2)n[nH]1
 : 11.9%, 2.0%, -6.0%, .
Cc1cc(O)c2c(c1)C(=O)[C@@]13Oc4c5c(c(O)c6c(O)cc(C)cc46)C(=O)C[C@H](O)[C@H]5[C@@H]1[C@@H](O)CC(=O)C3=C2O
 : -2.9%, 4.1%, ., .
Cn1c(SC(C(=O)Nc2ccc(F)cc2)c2ccccc2)nc2ccccc21 (configuration not stated)
 : -24.7%, 0.5%, -0.6%, -16.7
COC(=O)/C=C/C(=O)Nc1ccc(O)c(Cl)c1
 : 4.1%, -1.5%, -14.8%, 4.3
CC(=O)c1cccc(CN2CCCC(C(=O)c3ccc4c(c3)OCO4)C2)c1 (configuration not stated)
 : -9.7%, -1.7%, -6.0%, -6.7
CN(C)/C=C/C(=O)c1ccccc1OCc1cnc(Cl)s1
 : -25.6%, ?, -6.4%, -23.9
COc1ccc(NC(=O)Cn2c(=O)oc3cc(S(=O)(=O)N4CCCC4)ccc32)cc1
 : -2.1%, -0.7%, 1.4%, .
COc1ccc(C)cc1NC(=O)CCC(=O)Nc1nnc(C(F)(F)F)s1
 : 4.4%, 10.6%, 0.2%, -4.9
CNS(=O)(=O)c1cccc(C(=O)NNC(=O)c2ccc(COc3ccccc3)cc2)c1
 : 25.3%, -0.5%, 6.7%, .
CCCC1C2C(=O)N(c3ccc(OC)cc3)C(=O)C2ON1c1ccccc1 (configuration not stated)
 : 9.3%, -0.5%, 0.5%, 6.5
COc1ccc(C2=NN(C)C(=NCc3ccccc3)SC2)cc1
 : 4.0%, 0.2%, -21.3%, 4.5
NS(=O)(=O)c1cccc(NC(=O)CN2CCc3ccccc32)c1
 : -9.6%, -2.3%, -4.6%, -15.2
CCCC(=O)Nc1nnc(SCC(=O)N2CCCCC2)s1
 : 15.3%, -1.9%, -1.5%, .
COc1ccc(C2C(C#N)=C(N)N(c3sc4c(c3C#N)CCCC4)C3=C2C(=O)CC(C)(C)C3)cc1 (configuration not stated)
 : ?, ?, -15.6%, -9.9
Cc1nc2ccccc2c2c(N)cccc12
 : -0.8%, 2.6%, ., .

Later entries
Below each compound: Rango dissoc inh, Rango-impB inh, miR-21 reporter, GLA inh pH 4.5
CCOc1ncccc1C(=O)Nc1ccc2nc(C)sc2c1
 : -15.9%, 0.5%, -62.7%, .
O=C(Nc1ccc(Cl)cc1)C(Cl)C(=O)c1ccccc1 (configuration not stated)
 : -4.8%, 0.3%, 0.5%, .
O=C(c1cc([N+](=O)[O-])cc([N+](=O)[O-])c1)N(c1ccccn1)c1ccccn1
 : 39.3%, 0.1%, -9.9%, -11.9
O=C(Oc1c(Br)cc(C(=S)N2CCOCC2)cc1Br)c1ccc(Cl)cc1
 : -10.3%, 1.5%, 9.7%, -4.6
COc1cc(C(=O)Nc2cccc(NC(=O)c3cccs3)c2)cc(OC)c1OC
 : 1.0%, -5.6%, 24.8%, .
CCOC(=O)NC1(NC(C)C)Oc2ccccc2O1
 : ?, -2.3%, 2.4%, -5.3
CCC[n+]1c(C)sc2c3c(ccc21)CCCC3
 : ?, ?, 1.3%, 7.0
CCOC(=O)c1cnc2cc(Cl)c(OC)cc2c1NCC1CCCO1 (configuration not stated)
 : 29.2%, 2.8%, -8.2%, -6.7
CCOC(=O)C1CCN(C(=O)COC(=O)c2ccc([N+](=O)[O-])o2)CC1
 : 8.2%, 4.5%, ., .
O=C(CNCc1ccco1)Nc1ccc(Oc2ccccc2)cc1
 : 10.2%, ?, -15.9%, -5.8
Cc1ccc(C(C)C)c(OCC(=O)N/N=C/C2CCCCC2)c1
 : 3.1%, -2.6%, -1.1%, -3.7
CCN(CC)CCn1c2c(c(SCC(=O)Nc3ccc4c(c3)OCCO4)nc1=O)CCC2
 : -0.2%, ?, ., .
C[C@H](CO)N1C[C@H](C)[C@H](CN(C)C(=O)Nc2cccc3ccccc23)Oc2c(NC(=O)c3ccc(-c4nccs4)cc3)cccc2C1=O
 : -13.8%, -0.8%, ., .
CC(C)CN1CC(C)C(=O)N(c2ccccc2)C1=S (configuration not stated)
 : 0.7%, 0.3%, ., .
CC(C)(C)OC(=O)NCCc1nnc(SCc2ccccc2Cl)o1
 : 0.5%, 0.1%, -14.1%, -0.3
COC(=O)c1cc(=O)c2cccc(OC)c2[nH]1
 : 3.2%, -1.8%, 0.1%, 22.7
COc1ccc(S(=O)(=O)N2CCCC2)cc1C(=O)N1CCCCC1
 : 0.0%, 2.5%, -5.9%, .
Cc1ccccc1OCC(=O)Nn1c(COc2ccccc2)nc2ccccc2c1=O
 : 2.4%, 0.2%, -1.0%, -2.3
O=C(COc1ccc(Br)cc1)N/N=C1/SCC(=O)N1Cc1ccco1
 : 1.7%, 1.9%, -1.1%, 12.3
COc1cccc(CNCc2ccc(OC)c3ccccc23)c1OC
 : 4.2%, -0.2%, 18.4%, .
COC(=O)c1cc(C(=O)Nc2nc3ccccc3[nH]2)cc([N+](=O)[O-])c1
 : 5.0%, 3.4%, -25.2%, .
CCC1=C2CC[C@H]3C(=O)N(c4ccccc4)C(=O)[C@H]3[C@H]2[C@@]2(C)C(=NCC3CC3)OC(=O)N2C1=O
 : -19.6%, 3.9%, 4.3%, 0.5&-5.7
CCOc1ccc(/C=N/NC(=O)CC(=O)Nc2ccc(Cl)c(Cl)c2)cc1
 : 0.5%, -2.6%, -2.7%, -1.9
CCc1ccc(CNC(=O)CCn2nc(C)c3c(C)n(-c4ccccc4)nc3c2=O)cc1
 : 0.5%, -6.6%, -2.1%&5.3%, .

Retrieved by compound from the list above, 2 records:
Below each compound: Rango dissoc inh, Rango-impB inh, miR-21 reporter, GLA inh pH 4.5
O=C(Nc1ccc(Cl)cc1)C(Cl)C(=O)c1ccccc1 (configuration not stated)
 : -4.8%, 0.3%, 0.5%, .
CCOc1ccc(/C=N/NC(=O)CC(=O)Nc2ccc(Cl)c(Cl)c2)cc1
 : 0.5%, -2.6%, -2.7%, -1.9

Some of the compounds tested; the hit share may differ from the screen's.
